Screens from PubChem BioAssay.
FGF22 binding = FGF22 (human) thermal shift binding; 1.5% of 340,000 active; AID 651658; recombinant FGF22 thermal shift, SYPRO orange fluorescence; percent of sucrose octasulfate shift, DMSO zero; calls only at 9.99 µM;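 active means melting point raised past a set limit in the mean and every replicate; inconclusive means no clear call; three in four hits are not shown here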
Target sequence (Q9HCT0 whole entry, looked up): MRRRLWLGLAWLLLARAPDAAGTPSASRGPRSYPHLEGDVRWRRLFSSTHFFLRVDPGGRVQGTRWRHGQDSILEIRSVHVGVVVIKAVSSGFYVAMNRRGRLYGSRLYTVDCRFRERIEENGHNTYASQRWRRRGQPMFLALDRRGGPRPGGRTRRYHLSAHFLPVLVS
ALR inh = human ALR oxidase inhibition via reduced H2O2 | purified ALR, DTT oxidation, H2O2 HRP-luminol luminescence | inhibition, % (concentration not given with the values) | AID 485317 | 3.8% of 290,000 active | P55789;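 active means mean and each replicate at 75% or more; inconclusive means only one of the two met; inactive means neither met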;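 further: stock transfer was 7.5 nL into about 7.5 µL; 0% = neutral wells and 100% = wells with inactivated enzyme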
Target sequence (P55789 whole entry, looked up): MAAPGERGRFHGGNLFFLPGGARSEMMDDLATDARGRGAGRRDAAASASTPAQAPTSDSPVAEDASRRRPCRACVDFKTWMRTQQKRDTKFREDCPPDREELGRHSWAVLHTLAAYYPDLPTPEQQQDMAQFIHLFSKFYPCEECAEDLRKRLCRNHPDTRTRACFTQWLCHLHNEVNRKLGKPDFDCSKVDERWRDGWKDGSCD
T cruzi inh = T. cruzi replication inhibition; AID 1885; inhibition, % (test concentration not listed); T. cruzi beta-gal in NIH3T3, luminescence, 90 h; 1.4% of 300,000 active;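 active means mean inhibition across valid replicates above about 55%, limit read from the data; inconclusive means mean below that limit but half or more replicates reach it; inactive means mean below it, under half of replicates reach it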;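 further: signal also drops with host cell toxicity which is not excluded here; 0% = plate median of DMSO wells and 100% = zero luminescence signal; higher percent means less beta-gal luminescence so fewer parasites; stock transfer was 50 nL into about 50 µL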
MLL AF4-AF9 inh = inhibitors of human MLL-AF4/AF9 interaction; AID 651704; inhibition, % at 10 µM; AlphaScreen, biotin-AF4 peptide binding to FLAG-AF9; 0.47% of 350,000 active;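 active means every replicate reaching a set inhibition limit, whatever the replicate mean, cut at about 25% in these data; inconclusive means mean inhibition reaches that limit but some replicates miss it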;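 further: 0% = plate neutral control median and 100% = total signal loss; the record names both 10 and 1 µM as test concentration; the first replicate is given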
Target sequence (P42568 whole entry, looked up): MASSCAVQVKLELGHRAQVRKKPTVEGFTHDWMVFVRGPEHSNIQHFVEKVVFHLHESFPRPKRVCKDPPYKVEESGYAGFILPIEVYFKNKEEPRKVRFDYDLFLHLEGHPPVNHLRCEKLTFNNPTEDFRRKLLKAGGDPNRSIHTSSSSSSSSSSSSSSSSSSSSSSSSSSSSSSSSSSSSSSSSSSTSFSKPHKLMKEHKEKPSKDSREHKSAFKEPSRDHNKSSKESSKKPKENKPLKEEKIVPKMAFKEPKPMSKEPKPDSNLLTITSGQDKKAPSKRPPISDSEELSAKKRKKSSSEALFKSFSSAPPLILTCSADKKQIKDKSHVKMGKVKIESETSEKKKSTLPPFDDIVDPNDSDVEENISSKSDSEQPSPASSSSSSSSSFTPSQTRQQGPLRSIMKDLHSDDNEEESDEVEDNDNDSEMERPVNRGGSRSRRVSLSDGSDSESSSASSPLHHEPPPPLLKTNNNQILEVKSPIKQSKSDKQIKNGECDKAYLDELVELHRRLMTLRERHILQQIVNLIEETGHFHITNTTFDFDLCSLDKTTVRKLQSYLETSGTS
Beta cell apopt = blocks beta cell apoptosis | INS-1E cytokine-induced death, ATP luminescence, 48 h; percent of positive-control rescue, neutral wells zero | protection from apoptosis, % (test concentration not listed) | 0.8% of 300,000 active | AID 435005;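 active means all replicates at 75% or more, or half of them and the mean; inconclusive means half reach 75% but not the mean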;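 further: 0% = cytokine-treated negative control wells and 100% = positive control rescue; higher means more ATP so stronger rescue from cytokine killing; wells of about 40 µL received 100 nL stock; the first replicate is given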
RanGTP-Impb inh = disruptors of Ran-importin-beta complex formation – biochemical, FRET, CFP-Ran, YFP-importin-beta, homogeneous, primary screen; cell-free CFP-Ran/YFP-importin-beta FRET ratio; inhibition, % (concentration not given with the values); 1.1% of 300,000 active; AID 2216;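 active means most replicates above 15%; inconclusive means exactly half above 15%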;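 further: 0% = DMSO wells and 100% = Ran loaded with GDP instead of GTP; wells of about 40 µL received 100 nL stock; the first replicate is given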
Ecoli rRNA inh = inhibitors of bacterial rRNA selective over humanized ribosomes | E. coli WT GFP vs humanized-ribosome RFP mutants, fluorescence, 24 h; active compounds read low; DMSO median 0, no signal -100 | GFP signal change (wild-type ribosome), % (test concentration not listed) | 1.6% of 350,000 active;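 active means significant combined selectivity score with lowered wild-type GFP, culture density cut under 30%, mutant RFP and density less affected; inactive means any of these conditions unmet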; further: one replicate is shown; some compounds called inactive have numbers as strong as hits
Calb FLC = C. albicans growth modulation with fluconazole; C. albicans CaCi-2 (fluconazole-resistant clinical isolate) + fluconazole, Alamar Blue growth, 48 h; growth inhibition, % (test concentration not listed); 0.57% of 300,000 active;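 active means most replicates above 75%; inconclusive means exactly half above 75%; inactive means most below 75%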;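 further: all wells also contain fluconazole at 8 µg/ml as a sub-toxic cotreatment; 0% = median of DMSO wells and 100% = median of geldanamycin control wells; wells of about 8 µL received 7.5 nL stock; the first replicate is given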
Ecoli rRNA inh OD600 = second read-out of Ecoli rRNA inh, no call of its own (marks repeat the call); OD600 change, %; measured here: OD600 growth;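 optical density of the mix in the first replicate; 0 = DMSO median and -100 = no signal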
Ecoli rRNA inh RFP = second read-out of Ecoli rRNA inh, no call of its own (marks repeat the call); RFP signal change, %; measured here: RFP humanized mutant strains;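 first replicate; 0 = DMSO median and -100 = no signal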
Starred values were filed as active, the others as inactive; i = inactive; u = inconclusive; x = no result given. Some of the compounds tested, so the mix of outcomes need not match the whole.

Value order: FGF22 binding	ALR inh	T cruzi inh	MLL AF4-AF9 inh	Beta cell apopt	RanGTP-Impb inh	Ecoli rRNA inh	Ecoli rRNA inh OD600	Ecoli rRNA inh RFP	Calb FLC
- O=[n+]1cc(-c2ccccc2)n([O-])c2c1CCC2
    x	-4	-3	x	-4	3.3	x	x	x	-9
- Cc1ccnc(NC(=O)c2ccc(S(=O)(=O)N3CCCCCC3)cc2)c1
    i	-6	-1	1.8	-5	x	-5	-17	0.1	0
- Cc1ccc(Nc2nc(C(=O)NCC3CCCO3)cs2)cc1 (stereo not drawn)
    i	14	2	-5.5	-3	0.8	-42*	-5.2*	-0.3*	6
- Cc1ccccc1C(OCCN(C)C)C1CCCCC1 (stereo not drawn)
    x	-18	4	x	2	-1.6	x	x	x	2
- CCc1ccc(CN2C(=O)c3ccccc3C2C(=O)NCc2cccnc2)cc1 (stereo not drawn)
    i	0	-5	x	-1	-1.9	6	-5	-5.3	0
- CC(=O)Nc1nonc1NC(C)=O
    x	x	-1	x	-11	-0.4	x	x	x	-5
- CCc1ccccc1NC(=S)N(CCN(C)C)C(C)c1cccnc1 (stereo not drawn)
    x	0	7	-10	-4	-2.9	6	13	0.4	-7
- CCCCN(C(=O)Cn1nnc2ccccc21)C(C(=O)NCCOC)c1ccc(OC)cc1OC (stereo not drawn)
    x	3	1	x	0	2.4	x	x	x	-4
- CCCCC[C@H](O)/C=C/[C@@H]1[C@@H](CCCCCCC(=O)O)[C@@H](O)C[C@H]1O
    x	5	26	x	0	0.3	x	x	x	0
- CCCOc1cccc(NC(=O)OC2CCN(C)CC2)c1
    x	-4	50	x	0	4.3	x	x	x	-5
- COc1ccc(S(=O)(=O)N(c2onc(C)c2Cl)S(=O)(=O)c2ccc(OC)cc2)cc1
    x	-13	-14	x	-5	-0.5	x	x	x	0
- CC1CC(C)CN(C(=O)/C=C/c2ccc(S(=O)(=O)N3CCOCC3)cc2)C1 (stereo not drawn)
    i	-14	x	-0.4	5	x	4	16	-0.6	x
- COc1cc(-c2nc3ccccn3c2/N=C/c2cccc(OC)c2O)ccc1O
    i	u	-15	2.2	-4	3.2	x	x	x	9
- COc1ccccc1C(CNC(=O)C1COc2ccccc2O1)N1CCCC1 (stereo not drawn)
    i	x	x	5.6	-2	x	10	10	0.6	x
- O=C(CCc1nc(-c2ccc(Cl)cc2)no1)NCc1ccccc1CN1CCOCC1
    i	-21	x	4.0	-3	x	-4	-13	5.7	x
- COc1ccccc1OCC(=O)Nc1ccc(N2CCOCC2)cc1N1CCOCC1
    i	6	x	5.6	-4	x	-8	-3	-0.5	x
- Cc1cc(Cl)ccc1NC(=O)C1COc2ccccc2O1 (stereo not drawn)
    i	-2	1	-6.4	-5	6.4	-25	-36	-8.8	0
- CC(=O)Nc1ccc(S(=O)(=O)Nc2nc3ccccc3s2)cc1
    x	-3	7	x	-11	1.3	x	x	x	2
- Cc1cccc(CN2CCN(C(=O)CN(C)C(C)C(=O)Nc3ccc(C(N)=O)cc3)CC2)c1 (stereo not drawn)
    i	-4	x	2.6	1	x	7	9	-0.6	x
- CC(=O)c1cc(-c2ccc(F)cc2)n(CC(=O)NCc2cccs2)c1C
    x	-3	-1	x	x	-3.4	x	x	x	0
- CC(=O)Nc1ccc(SCC(=O)OCC(=O)NC(=O)NCc2ccco2)cc1
    x	-6	-11	x	-4	u	x	x	x	1
- O=C(CSCc1nc2c(nnn2Cc2ccc(F)cc2)c(=O)[nH]1)Nc1cccc(C(F)(F)F)c1
    i	96*	2	-0.1	0	-4.1	2	3	1.2	12
- CC1(C)Oc2ccc3ccc(=O)oc3c2C[C@H]1O
    i	-11	-24	-18	-4	0.0	10	3	0.1	-6
- NC(=O)Cc1ccc(C(=O)c2ccccc2)s1
    i	-3	-7	-5.1	-1	0.6	8	4	11	-6
- CCc1ccccc1Nc1nc(N)nc(CSCC(=O)Nc2ccc(C)c(C)c2)n1
    i	4	10	-0.7	-5	1.5	-28	-36	-2.5	10
- COc1cccc(C2CC(c3cccc(OC)c3)n3nc(N)nc3N2)c1 (stereo not drawn)
    i	1	7	-2.1	3	0.9	9	11	0.6	0
- CCCCCC(=O)Nc1cccc2ccccc12
    i	-7	-14	-1.4	5	0.9	2	5	-1.0	1
- Cc1ccccc1NC(=O)c1ccccc1-c1ccccc1
    i	0	-15	2.8	x	-3.9	-25	-48	-15	-15
- O=C1CC/C=C\C[C@@H](CC(=O)N(CCO)Cc2ccccc2)C(=O)N2CCC[C@H]2CO1
    i	0	x	-24	-3	x	6	14	-0.6	x
- CC(=O)Nc1ccc(NS(=O)(=O)c2cc([N+](=O)[O-])ccc2C)cc1
    i	-3	-20	-1.7	-1	1.1	8	6	-3.2	1
- OCCC1CN(Cc2cccc3nonc23)CCN1Cc1ccsc1 (stereo not drawn)
    i	x	-11	4.6	-3	u	3	2	-9.1	u
- Nc1ccccc1SC(C[N+](=O)[O-])c1ccccc1 (stereo not drawn)
    x	-1	-20	x	-5	-0.6	x	x	x	2
- CSc1nnc(CNC(=O)c2ccccc2)n1-c1ccc(F)cc1
    i	-8	x	6.7	1	x	14	8	1.4	x
- COc1ccc(C(=O)Cn2c(C(=O)/C=C/c3ccccc3)nc3ccccc32)cc1
    x	-3	1	x	21	-1.4	x	x	x	9
- CCCN(CC(=O)Nc1ccccc1C)C(=O)Cc1n[nH]c(=O)c2ccccc12
    i	x	x	0.4	-4	x	-3	12	-0.2	x
- COc1ccc(C(=O)NCCCc2ccccc2)cc1
    i	-7	-9	-4.1	x	-2.6	-11	-13	1.2	-18
- NS(=O)(=O)c1cccc(NC(=O)c2cncc(Br)c2)c1
    i	-3	1	5.2	-9	8.1	-4	-5	-7.3	1
- O=C(c1ccc(CSCc2ccccc2F)o1)N1CCN(c2ccc(N3CCOCC3)nn2)CC1
    i	31	1	9.5	4	0.5	-2	5	-3.5	5
- COc1ccc(Br)cc1C(=O)Nc1ccc(C(=O)NCC(C)C)cc1
    i	2	24	-1.3	16	2.5	-11	-6	-1.0	25
- COCCCNc1nc2ccccc2nc1NS(=O)(=O)c1ccc(OC)cc1
    i	-3	4	3.4	-3	4.2	2	-4	-1.1	-3
- CCC(=O)Nc1cc(=O)[nH]c2nc(-c3ccc(Cl)cc3)nn12
    x	29	3	5.8	-4	-0.5	1	-9	-11	9
- COCC(=O)Nc1ccc(N2CCOCC2)c(S(=O)(=O)Nc2ccc(OC)cc2)c1
    i	1	x	5.6	1	x	16	11	3.1	x
- COc1ccc(C(=O)NCCn2cc(SCC(=O)Nc3cc(C)on3)c3ccccc32)cc1OC
    x	56	27	x	-14	-2.0	x	x	x	1
- COc1ccc2oc(=O)c(C(=O)Nc3cccc(C(C)=O)c3)cc2c1
    i	-9	-10	-0.1	2	-2.8	3	8	0.2	-2
- O=C(Cc1ncc(C(F)(F)F)cc1Cl)N1CCN(c2ccccn2)CC1
    x	-28	5	x	-1	2.0	x	x	x	20
- COc1cc2cc(CCCOC(=O)CCC(=O)O)oc(=O)c2cc1OC
    i	-4	x	1.7	3	x	-1	6	-1.2	x
- COCCNC(=O)[C@H]1N2C(=O)c3c(ccc(OC)c3OC)C2SC1(C)C (stereo partly drawn)
    i	-2	6	1.4	-3	-0.2	11	10	-2.3	-1
- COc1ccccc1NC(=O)Cn1cnc2c(oc3nc4c(cc32)CCCC4)c1=O
    i	1	-19	-1.2	3	0.5	-7	-12	-1.9	18
- Cc1ccc(-c2sc(-c3ccccc3)nc2CC(=O)Nc2ccccc2F)cc1
    i	-1	42	6.5	141*	-4.8	x	x	x	-3
- CC(=O)Nc1sc(C)c(C)c1C(=O)OC(C)C
    x	-3	13	x	-9	0.5	x	x	x	5
- O=C(Cn1ncc2c(=O)oc3ccccc3c21)N(Cc1ccco1)C1CCCCC1
    i	-1	-2	5.1	-3	u	1	-7	-0.4	-6
- COc1ccc(CNC(=O)N[C@@H](CC(C)C)C(=O)O)cc1OC
    i	x	-7	6.5	0	-2.8	10	5	-4.8	-1
- O=C(c1ccc2oc(Cc3ccc(Cl)cc3)nc2c1)N1CCCCC1CCO (stereo not drawn)
    i	-14	17	-0.9	x	-2.0	1	4	0.7	22
- Cc1nn(C)cc1C(C(=O)NC1CCCCC1)N(Cc1ccc(F)cc1)C(=O)c1cnccn1 (stereo not drawn)
    i	0	-4	0.5	-1	0.5	7	9	0.7	7
- CCCOc1ccc(/C=C/C(=O)Nc2ccc([N+](=O)[O-])cc2)cc1
    x	-2	37	x	35	-1.1	x	x	x	2
- COc1ccc(-c2[nH]ncc2CN2CCCO2)c(F)c1
    i	-2	-7	1.6	-10	-0.3	6	3	-4.9	-2
- COc1ccc(C)cc1NC(=O)c1ccc(S(=O)(=O)N2CCCCC2)cc1
    i	-5	2	4.0	1	-1.7	-5	-13	-1.9	2
- CCN(C(=O)CSc1nccc(=O)[nH]1)c1cccc2ccccc12
    i	x	x	-2.8	-1	x	-6	-2	-2.0	x
- Cc1csc2nc(CNC(=O)c3ccco3)cn12
    x	-3	-3	x	-2	0.0	x	x	x	-1
- Cc1ccc(-c2ccc(/C=C(\C#N)C(N)=S)n2C)cc1
    i	x	x	2.7	-3	31*	12	15	4.7	5
- COC(=O)CSc1nnc(-c2ccc(NS(=O)(=O)c3ccccc3)cc2)o1
    x	1	-6	x	-9	-1.5	x	x	x	-2
- S=C1CCC(c2ccc(Br)cc2)=NN1c1ccccc1
    i	6	13	3.7	3	-1.4	-31	-1	17	0
- Cc1cccc(C)c1OCCNC(=O)OCc1ccccc1
    i	-17	5	-1.8	-3	u	-47	-59	-14	0
